Source: PubChem BioAssay
GLS inhibitor = inhibitors of human glutaminase (GLS). GLS enzymatic activity, qHTS titration. Potency, µM (top dose mostly 45.5 µM), inactives show top-dose activity change, negative = inhibition, actives largely listed as inhibitors. O94925. 410,000 compounds, 0.21% hits; note: % is set by controls: 0 for no effect and ±100 for the full control effect
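hKGA in 45 mM KH2PO4 pH 8.2, 0.02% Tween-20 with pin-transferred compounds; 1 mM L-glutamine (stock) plus glutamate oxidase/HRP/Amplex Red coupling added. Fluorescence read initially and after 30 min at RT.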
POLI inh = blocks human DNA polymerase iota activity | Q9UNA4 | Pol iota fluorescent replication assay, 10 min | Potency, µM (doses to about 115 µM), inactives show at the top dose activity, negative = inhibition, actives largely listed as inhibitors | 390,000 compounds, 1% hits | AID 588590
Target sequence (Q9UNA4 whole entry, looked up): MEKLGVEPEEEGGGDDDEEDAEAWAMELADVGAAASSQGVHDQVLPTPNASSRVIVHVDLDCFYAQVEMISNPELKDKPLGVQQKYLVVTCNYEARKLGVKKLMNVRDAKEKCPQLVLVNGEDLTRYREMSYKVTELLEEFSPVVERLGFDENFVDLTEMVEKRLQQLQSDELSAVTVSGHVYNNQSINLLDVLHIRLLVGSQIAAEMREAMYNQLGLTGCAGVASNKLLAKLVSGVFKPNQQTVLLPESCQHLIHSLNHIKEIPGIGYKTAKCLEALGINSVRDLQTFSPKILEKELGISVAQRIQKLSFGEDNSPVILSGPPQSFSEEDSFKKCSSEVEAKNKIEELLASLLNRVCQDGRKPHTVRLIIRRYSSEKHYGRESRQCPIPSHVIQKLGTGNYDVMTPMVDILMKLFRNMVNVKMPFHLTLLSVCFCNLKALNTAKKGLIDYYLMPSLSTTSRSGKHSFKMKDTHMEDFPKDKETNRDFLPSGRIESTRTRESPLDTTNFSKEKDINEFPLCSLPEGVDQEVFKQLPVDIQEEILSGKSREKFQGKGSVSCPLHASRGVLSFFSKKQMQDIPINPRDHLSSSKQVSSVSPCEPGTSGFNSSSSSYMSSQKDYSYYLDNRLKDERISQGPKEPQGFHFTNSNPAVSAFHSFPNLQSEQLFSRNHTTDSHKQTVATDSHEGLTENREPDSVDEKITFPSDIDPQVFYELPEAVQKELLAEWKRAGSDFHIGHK
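Fluorescent replication assay read twice, at 0 min and 10 min after adding 50 nM (final) substrate. Enzyme (10 nM) and compounds were first incubated 15 min at room temperature; enzyme-free buffer wells were negative controls.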
PGK inhibitor = inhibitors of T. brucei phosphoglycerate kinase. P07378. 380,000 compounds, 0.043% hits. Potency, µM (top dose mostly 57.5 µM), for the others: at the top dose activity change, negative = inhibition, actives largely listed as inhibitors. PGK/GAPDH coupled, Kinase-Glo luminescence, 60 min; note: % is set by controls: 0 for no effect and ±100 for the full control effect; nearly all actives have a fitted effect of over 60% in size
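Luminescent ATP detection (Kinase-Glo Plus) follows a 60-minute room-temperature incubation, with wells lacking PGK as controls. Buffer: 100 mM TEA (pH 7.6), 5 mM MgCl2, 0.01% Tween-20. Coupling enzyme GAPDH (100 nM final) supplies unstable 1,3-BPG in-well.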
BLM inh = blocks DNA unwinding by human BLM helicase; P54132; recombinant BLM DNA unwinding, fluorescence dequenching; Potency, µM (top dose mostly 56.1 µM), for inactives: top-dose activity change, negative = inhibition, most hits filed as inhibitors; 350,000 compounds, 0.2% hits; AID 2528;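 note: plate controls were vehicle for no effect and no enzyme for full effect; nearly all actives have a fitted effect of over 35% in size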
Pin1 inh = blocks the human prolyl isomerase Pin1. Pin1 FP peptide displacement, HiFluor488, 10 min. Potency, µM (doses to about 115 µM), inactives show top-dose activity, negative = inhibition, usual class: inhibitors. 390,000 compounds, 0.009% hits; active = well fitted inhibition curve with a large enough effect in the polarisation, with a control signal flat, not every such curve was filed as active; inconclusive = small, poorly fitted or top-dose-only effect, or effect the other way, or a change in a side signal; inactive = no such curve, though single readings can be large or run the other way; the % refers to the polarisation; note: % is set by controls: 0 for no effect and ±100 for the full control effect
Target sequence (Q13526 whole entry, looked up): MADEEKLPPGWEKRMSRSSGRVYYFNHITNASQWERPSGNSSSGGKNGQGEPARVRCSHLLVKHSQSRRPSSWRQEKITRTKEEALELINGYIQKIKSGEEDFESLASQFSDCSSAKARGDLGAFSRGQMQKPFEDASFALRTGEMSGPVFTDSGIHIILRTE
Active calls of the source: *; i = inactive; ? = inconclusive; . = no result given; & = joins results of further samples; [ ] = remark or other dose. Unless noted, calls come from the whole dose curve; as a rule, active = well fitted curve in the direction sought with a large enough effect; inconclusive = small, poorly fitted or top-dose-only effect, or another doubt; inactive = no such curve, though single readings can be large; an effect the other way counts as inactive or inconclusive. Potency is the fitted concentration of half-maximal effect.

Letter code – A = GLS inhibitor; B = POLI inh; C = PGK inhibitor; D = BLM inh; E = Pin1 inh
> CCOc1ccc(OCCn2c(=S)[nH]c3c(N)ncnc32)cc1
  A: ? | B: 21% | C: -2% | D: -3% | E: -1%

> COc1cccc(C2C(C(=O)Nc3cccnc3)=C(C)Nc3nc(SCc4ccccc4)nn32)c1 (stereo unspecified)
  A: -4% | B: 30% | C: i | D: -3% | E: -2%

> O=C(Nc1nnc(Cc2ccc(Cl)cc2)s1)c1cccs1
  A: 6% | B: 12% | C: i | D: -2% | E: 4%

> Cc1ccc(O)c(NC(=S)NC(=O)c2ccccc2Cl)c1
  A: 3% | B: 8% | C: -3% | D: -8% | E: 0%

> Cc1cc(F)ccc1NCc1ccc([N+](=O)[O-])cc1
  A: -4% | B: 117%[activator] | C: -10% | D: -11% | E: -9%

> COc1ccc(Cn2ccn(Cc3cccc(Cl)c3)c(=O)c2=O)cc1
  A: -12% | B: 2% | C: -10% | D: -6% | E: -1%

> COc1cc(C(=O)OC2CCCCC2=O)cc(OC)c1C (stereo unspecified)
  A: 3% | B: ? | C: -6% | D: -5% | E: -4%

> Cc1ccc(-n2[nH]c(C)c(/C=N/Nc3ccc([N+](=O)[O-])cc3[N+](=O)[O-])c2=O)cc1C
  A: 19% | B: ? | C: ? | D: -19% | E: ?

> C[C@@H](C(=O)O)c1cccc(C(=O)c2ccccc2)c1
  A: 8% | B: . | C: . | D: -5% | E: .

> CN(C)S(=O)(=O)NCc1ccc2c(c1)OCO2
  A: 8% | B: 17% | C: -5% | D: -1% | E: -13%

> COc1ccccc1N1CCN(Cc2nc3ccccc3c(=O)n2CC(C)=O)CC1
  A: 8% | B: 14% | C: 1% | D: -1% | E: 1%

> Cc1cc(N/N=C/c2ccccc2[N+](=O)[O-])nc(-n2nc(C)cc2C)n1
  A: -15% | B: 64%[activator] | C: -3% | D: -8% | E: 0%

> CC1=C(C(=O)Nc2cccnc2)C(c2ccncc2)n2nnnc2N1 (stereo unspecified)
  A: 3% | B: 16% | C: 1% | D: 1% | E: 0%

> CC(=O)N/C(=C\c1ccccc1)C(=O)OC(C)C(=O)Nc1ccccc1F (stereo unspecified)
  A: 2% | B: 14% | C: i | D: . | E: -1%

> O=C(N/N=C/c1cccc(Br)c1)c1ccc(N2CCCC2=O)cc1
  A: 48%[activator] | B: ? | C: -4% | D: -5% | E: 29%

> Cc1cc2c(cc1S(=O)(=O)N(C)c1ccccc1)NC(=O)CO2
  A: -2% | B: 43%[activator] | C: -10% | D: -2% | E: -1%

> COc1ccc(Nc2ncc3c(n2)CC(c2ccccc2)CC3=O)cc1 (stereo unspecified)
  A: 7% | B: 11%[58.9 µM] | C: 0% | D: -2% | E: -2%

> CC1=C(C)C(=O)C(CCCCC#CCCCC#CCO)=C(C)C1=O
  A: 0%&-1% | B: ? | C: -2% | D: -12% | E: -6%

> Cc1ccc2c(c1)-c1c(ssc1=S)C(C)(C)N2C(=O)c1ccco1
  A: -4% | B: ? | C: 0%[11.5 µM] | D: 2% | E: 8%

> Cc1ccc(C(=O)Nc2sc(C)c(C)c2C(=O)c2ccccc2)cc1
  A: -19% | B: -14% | C: -8% | D: -7% | E: 23%

> CCCCOCC(O)Cn1c(C)nc2ccccc21 (stereo unspecified)
  A: 15% | B: 14% | C: 13% | D: -1% | E: -1%

> CC(C)c1ccc(S(=O)(=O)N2CCN(C(C)C(=O)Nc3ccccc3-c3ccccc3)CC2)cc1 (stereo unspecified)
  A: -1% | B: -5% | C: i | D: -10% | E: 8%

> CCN1CCC(N2CCN(c3ccccc3OC)CC2)CC1
  A: 3% | B: 81%[activator] | C: -7% | D: -1% | E: -6%

> Cc1c(OC(C)C(=O)N2C[C@H]3C[C@@H](C2)c2cccc(=O)n2C3)ccc2c3c(c(=O)oc12)CCCC3 (stereo partly specified)
  A: 12% | B: -2% | C: -1% | D: 6% | E: 1%

> COC(=O)Cc1cc(=O)oc2cc(O)ccc12
  A: 3% | B: 27% | C: 0% | D: 0% | E: -4%

> CC1=C(C(=O)Nc2cccnc2)C(c2ccc(Cl)cc2)n2nc(SCc3ccccc3)nc2N1 (stereo unspecified)
  A: 12% | B: -19% | C: 6% | D: -2% | E: 0%

> Cc1nn2c(-c3ccccc3)ccnc2c1-c1ccccc1
  A: -1% | B: 17% | C: -5% | D: -5% | E: 7%

> COc1ccc(C(=S)N2CCOCC2)cc1OC(=O)c1ccc([N+](=O)[O-])cc1
  A: -26% | B: 11% | C: 0% | D: -3% | E: -3%

> Cc1ccc(CNCc2cc3c(C(C)(C)C)nn(-c4ccccc4)c3[nH]c2=O)cc1
  A: -11% | B: -20% | C: i | D: -12% | E: 7%

> COc1cc(O)ccc1C(=O)CCc1ccc(O)cc1
  A: -14% | B: 110%[activator] | C: 0% | D: -3% | E: 3%

> N#CC(c1ccccc1F)(c1ncc(C(F)(F)F)cc1Cl)N1CCOCC1 (stereo unspecified)
  A: -2% | B: -17% | C: i | D: -2% | E: 2%

> O=C(/C=C/c1cc2c(cc1Br)OCO2)NCc1ccc(Cl)cc1
  A: -5% | B: 5% | C: -11% | D: -4% | E: 0%

> COc1cccc(C(=O)Nc2cc3c(cc2N2CCCC2)n(C)c(=O)n3C)c1
  A: -7% | B: -2% | C: -6% | D: -1% | E: -2%

> CC1(C)NC(=O)N(CNc2cc(Cl)ccc2Cl)C1=O
  A: 3% | B: 9% | C: -2% | D: -3% | E: 0%

> COc1ccc(CNC(=O)CSCc2cccc(Cl)c2)cc1
  A: 1% | B: 14% | C: -2% | D: -3% | E: -2%

> COc1ccc(NC(=O)CN(C)S(=O)(=O)c2ccc(Br)s2)cc1
  A: 1% | B: 106%[activator] | C: 2% | D: 4% | E: 7%

> C=CCn1c(CCNC(=O)c2cccs2)nnc1SCC(=O)Nc1cccc(Cl)c1C
  A: -5% | B: 15% | C: -9% | D: -1% | E: -10%

> Cc1cccc2cc(-c3nc4ccc(C(=O)O)cc4[nH]3)c(=O)oc12
  A: 3% | B: ? | C: -10% | D: -3% | E: ?

> COc1ccc(/C=N/Nc2cc(C)nc(-n3nc(C)cc3C)n2)cc1
  A: 2% | B: 18% | C: -6% | D: -1% | E: 1%

> CN1CCN(S(=O)(=O)c2cccc(C(=O)Nc3cc(C(N)=O)cc(C(N)=O)c3)c2)CC1
  A: -1% | B: ? | C: -13% | D: 1% | E: 0%

> COc1cc(C(=O)N/N=C/c2ccc(OC(=O)c3cccc(C)c3)cc2)ccc1O
  A: 0% | B: 1% | C: -2% | D: -15% | E: -2%

> COCCn1c(SCC(=O)Nc2cc(C)nn2-c2ccccc2)nnc1-c1ccncc1
  A: -12% | B: 133%[activator] | C: 0% | D: 3% | E: -12%

> COC(=O)/C=C/c1ccc(OC(=O)OC)c(OC(=O)OC)c1
  A: -28% | B: -11% | C: -7% | D: 4% | E: -6%

> O=C(O)c1nccnc1C(=O)Nc1ccc(Cl)cc1Cl
  A: 6% | B: ? | C: . | D: -9% | E: -1%

> CCOc1cc(S(=O)(=O)NCCN2CCOCC2)c(C)cc1C
  A: -5% | B: 5% | C: 0% | D: -1% | E: 1%

Next section (4 carried over from the part before).
Letter code – A = GLS inhibitor; B = POLI inh; C = PGK inhibitor; D = BLM inh; E = Pin1 inh
> COCCn1c(SCC(=O)Nc2cc(C)nn2-c2ccccc2)nnc1-c1ccncc1
  A: -12% | B: 133%[activator] | C: 0% | D: 3% | E: -12%

> COC(=O)/C=C/c1ccc(OC(=O)OC)c(OC(=O)OC)c1
  A: -28% | B: -11% | C: -7% | D: 4% | E: -6%

> O=C(O)c1nccnc1C(=O)Nc1ccc(Cl)cc1Cl
  A: 6% | B: ? | C: . | D: -9% | E: -1%

> CCOc1cc(S(=O)(=O)NCCN2CCOCC2)c(C)cc1C
  A: -5% | B: 5% | C: 0% | D: -1% | E: 1%

> C=CCn1c(CCNC(=O)c2ccccc2F)nnc1SCC(=O)Nc1ccccc1F
  A: 5% | B: 14% | C: 3% | D: 2% | E: -1%

> S=c1nc[nH]c2c1[nH]c1ccccc12
  A: -16% | B: -9% | C: -6% | D: 4% | E: 4%

> CS(=O)(=O)c1ccc(-c2csc(-c3cccnc3)n2)cc1
  A: -7% | B: 5% | C: . | D: -5% | E: -2%

> CCOc1ccc(NC(=O)C(CC(C)C)N2Cc3ccccc3C2=O)cc1 (stereo unspecified)
  A: 1% | B: -19% | C: i | D: -1% | E: -3%

> NS(=O)(=O)c1cc(C(=O)Nc2ccc3c(c2)CCC3)ccc1Cl
  A: -1% | B: 15% | C: 7% | D: -6% | E: -4%

> Cc1ncc(CO)c(/C=N/NC(=S)Nc2ccc(C(C)C)cc2)c1O
  A: -12% | B: 4% | C: 8% | D: -7% | E: ?

> COc1c2occc2cc2ccc(=O)oc12
  A: -6%&7% | B: -8% | C: -3% | D: -6% | E: 3%

> COc1cc(CNc2ccccc2)c([N+](=O)[O-])cc1OC
  A: 8% | B: 146%[activator] | C: 3% | D: -13% | E: 0%

> Cc1nnc(NNS(=O)(=O)c2ccc(Cl)cc2)[nH]c1=O
  A: 15% | B: 10% | C: -1% | D: 0% | E: 5%

> CC(=O)Nc1ccc(Oc2ncccn2)cc1
  A: 7% | B: 14% | C: -8% | D: -3% | E: -2%

> COc1ccccc1NC(=O)C1=C(C)Nc2nnnn2C1c1cccc(Br)c1 (stereo unspecified)
  A: . | B: 12% | C: 1% | D: -6% | E: -5%

> CS(=O)(=O)c1ccc(C(=O)OCC(=O)NC(=O)Cc2ccccc2)cc1
  A: -1% | B: 21% | C: 11% | D: . | E: 0%

> CN(Cc1ccccc1)C(=O)c1[nH]cnc1C(=O)Nc1nccs1
  A: 6% | B: ? | C: -3% | D: . | E: 4%

> Fc1ccc(-c2cc3nc(-c4ccccc4)cc(N4CCOCC4)n3n2)cc1
  A: -1% | B: -4% | C: . | D: -2% | E: -4%

> COc1ccc(-c2cc(-c3n[nH]c(=S)n3-c3cc(OC)ccc3OC)[nH]n2)cc1
  A: -11% | B: -17% | C: -1% | D: -1% | E: 1%

> COc1ccc(CN(Cc2ccco2)S(=O)(=O)c2ccc(S(=O)(=O)N3CCCC3)cc2)cc1
  A: 2% | B: 19% | C: -5% | D: -3% | E: -2%

> CC(C)CC(C(=O)N1CCOCC1)N1Cc2ccccc2C1=O (stereo unspecified)
  A: 1% | B: 11% | C: 4% | D: -2% | E: 2%

> CCN(CC)CCOCCOc1ccc(Cl)c2ccccc12
  A: 7% | B: 1% | C: -8% | D: 6% | E: -7%

> COCCn1c(SCC(=O)Nc2nnc(C)s2)nnc1-c1ccncc1
  A: -5% | B: 16% | C: i | D: -2% | E: -2%

> CCc1ccc(N2C(=O)C3CCCN3C2=S)cc1 (stereo unspecified)
  A: 7% | B: 41% | C: -4% | D: -3% | E: -12%

> CC(C)NC(=O)NC(=O)COC(=O)c1c2c(nc3ccccc13)CCC2
  A: 50%[activator] | B: -28% | C: 3% | D: -11% | E: 10%

> Clc1ccc(CN2CCSCC2)cc1Cl
  A: 3% | B: -10% | C: -9% | D: 2% | E: -8%

> CC(C)COC(=O)NCC12C=CC(O1)C1C(=O)N(c3ccc(Cl)cc3)C(=O)C12 (stereo unspecified)
  A: -10% | B: -9% | C: -5% | D: -2% | E: 4%

> O=C(O)c1cccnc1Sc1ccc(Cl)cc1
  A: 2% | B: 7% | C: -6% | D: 0% | E: 4%

> Cc1c(CC(=O)O)c(=O)oc2c(C)c(OCc3ccc(F)cc3Cl)ccc12
  A: -5% | B: -4% | C: -4% | D: -5% | E: 3%

> Cc1ccc(-c2nn(-c3ccccc3)c3[nH]c(=O)c(CNCc4ccccc4)cc23)cc1
  A: ? | B: 36%[activator] | C: . | D: -15% | E: ?

> CSc1nnc2c(n1)[nH]c1c(C)cccc12
  A: -11% | B: 8% | C: . | D: 0% | E: 15%

> COc1ccc(CNCc2cccn2C)cc1
  A: 1% | B: 3% | C: -8% | D: -2% | E: -3%

These rows are one share of the data; count on the stated rates, not on these rows.
